High-throughput results as filed in PubChem.
2A StopGo: High Throughput Screening for Foot and Mouth Disease Virus Antivirals; hit rate 1.2% among 410,000; AID 1159524, 2015; human cells with a luciferase reporter of 2A StopGo recoding; control for the full effect not named in the record; Potency, µM (top dose mostly 57.9 µM), inactives show top-dose signal change, negative = less light; active = well fitted falling curve with a large enough effect; inconclusive = small, poorly fitted or top-dose-only effect; inactive = no such curve, though single readings can be large or run the other way; tested in HEK293T cells; further: on the % scale 0 is the no-effect control and ±100 the full control effect; nearly all actives have a fitted effect of over 45% in size; luciferase light after 4 h
Cruzain Triton: qHTS Assay for Promiscuous and Specific Inhibitors of Cruzain (with detergent) | Cruzipain (Trypanosoma cruzi), P25779 | purified cruzain, Z-FR-AMC fluorescence, 0.01% Triton | Potency, µM, for inactives: max response, negative = inhibition, actives largely listed as inhibitors | hit rate 0.43% among 200,000;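 further: plate controls were neutral wells for no effect and buffer without enzyme for full effect; nearly all actives have a fitted effect of over 40% in size; top concentration of the series not given in the record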
Target sequence (P25779 123-467 limits assumed): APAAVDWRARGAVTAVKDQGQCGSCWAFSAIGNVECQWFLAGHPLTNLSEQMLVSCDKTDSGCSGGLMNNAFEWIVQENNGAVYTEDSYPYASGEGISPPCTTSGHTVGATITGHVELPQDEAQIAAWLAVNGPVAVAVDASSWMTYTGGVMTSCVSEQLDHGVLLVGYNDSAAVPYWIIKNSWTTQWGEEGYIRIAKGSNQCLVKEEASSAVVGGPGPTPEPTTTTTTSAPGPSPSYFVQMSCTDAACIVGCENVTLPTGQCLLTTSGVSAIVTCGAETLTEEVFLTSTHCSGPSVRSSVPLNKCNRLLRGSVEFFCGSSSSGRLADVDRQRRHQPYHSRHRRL
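Purified cruzain (1.5 nM final) was preincubated with compounds for 15 min at room temperature in 100 mM sodium acetate pH 5.5, 5 mM DTT, 0.01% Triton X-100. Reaction started with 2 uM Z-FR-AMC; AMC fluorescence change over 60 s gave activity.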
Cruzain noTriton: qHTS Assay for Promiscuous and Specific Inhibitors of Cruzain (without detergent); Cruzipain (Trypanosoma cruzi), P25779; purified cruzain, Z-FR-AMC fluorescence, no detergent; Potency, µM, for inactives: max response, negative = inhibition, most hits filed as inhibitors; hit rate 2.3% among 200,000;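 further: plate controls were enzyme without inhibitor for no effect and buffer without enzyme for full effect; nearly all actives have a fitted effect of over 40% in size; top concentration of the series not given in the record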
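Purified cruzain at 1.5 nM, pre-incubated 15 min with compound at room temperature in 100 mM sodium acetate pH 5.5, 5 mM DTT, 0.00005% Triton X-100. Reaction started with 2 uM Z-FR-AMC; AMC fluorescence increase over 60 s gives rate.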
NS1 inh: qHTS Assay for Inhibitors of Influenza NS1 Protein Function; S. cerevisiae slowed by influenza A NS1, growth recovery by OD600; Potency, µM (highest dose often 46.1 µM), for the others: at the highest dose activity, positive = more growth; hit rate 0.4% among 270,000; active means well fitted rising curve with a large enough effect; inconclusive means small, poorly fitted or top-dose-only effect; inactive means no such curve, though single readings can be large or run the other way; further: nearly all actives have a fitted effect of over 50% in size
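S. cerevisiae expressing influenza A NS1, grown in glucose, washed, then diluted 1:100 into pH 6.0 -URA galactose medium with 23 nl compound. Growth recovery read as OD600; NS1-free strain serves as control.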
LASV entry inh: qHTS for Inhibitors of binding or entry into cells for Lassa Virus; Lassa virus pseudotype entry inhibition, cell reporter; control for the full effect not named in the record; Potency, µM (titrated, usually from 37.9 µM), inactives show top-dose activity change, negative = inhibition, actives largely listed as inhibitors; hit rate 1.2% among 300,000; AID 540256, 2011; active means well fitted inhibition curve with a large enough effect; inconclusive means small, poorly fitted or top-dose-only effect, or effect the other way; inactive means flat fitted curve, though single readings scatter; tested in HEK293 cells; further: on the % scale 0 is the no-effect control and ±100 the full control effect; nearly all actives have a fitted effect of over 50% in size; luciferase read-out
MARV entry inh: qHTS for inhibitors of binding or entry into cells for Marburg Virus; Marburg virus pseudotyped entry inhibition, cell reporter; control for the full effect not named in the record; about a third of the inactives were read at about 46 µM; Potency, µM (highest dose often 37.8 µM), without a hit: top-dose activity change, negative = inhibition, most hits filed as inhibitors; hit rate 1.8% among 300,000; AID 540276, 2011; active = well fitted inhibition curve with a large enough effect; inconclusive = small, poorly fitted or top-dose-only effect, or effect the other way; inactive = flat fitted curve, though single readings scatter; tested in HEK293 cells; about a fifth of its hits are not listed in these tables; further: on the % scale 0 is the no-effect control and ±100 the full control effect; luciferase read-out
RE007 growth inh: qHTS Assay for Inhibitors of the HIV-1 protein Vpr; S. pombe RE007 Vpr strain, BacTiter-Glo ATP luminescence, 24 h; control for the full effect not named in the record; Potency, µM (highest dose often 92.2 µM), inactives show at the top dose activity change, negative = less growth; hit rate 0.21% among 360,000; active = well fitted falling curve with a large enough effect; inconclusive = small, poorly fitted or top-dose-only effect; inactive = no such curve, though single readings can be large or run the other way;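 further: on the % scale 0 is the no-effect control and ±100 the full control effect; nearly all actives have a fitted effect of over 50% in size; the assay follows cell death caused by Vpr and the record does not say whether a fall means rescue or toxicity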
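Fission yeast RE007 carrying one integrated HIV-1 vpr copy, seeded at OD 0.01 in PMG+AL medium with 23 nL pinned compound. Grown 24 h at 30 degrees; viability read by BacTiter-Glo luminescence after 5 min.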
SARS PLpro yeast: qHTS of Yeast-based Assay for SARS-CoV PLP; Potency, µM (highest dose often 32.9 µM), inactives show at the highest dose activity, positive = growth rescue; hit rate 0.19% among 330,000; S. cerevisiae expressing SARS-CoV PLpro, growth rescue; control for the full effect not named in the record; active means well fitted rising curve with a large enough effect; inconclusive means small, poorly fitted or top-dose-only effect; inactive means no such curve, though single readings can be large or run the other way; further: 0% is about no effect; nearly all actives have a fitted effect of over 55% in size; growth read by luminescence after 48 h
Active calls of the source: *; ? = inconclusive; · = not tested or not shown; & = joins results of further samples; [ ] = another dose, or the depositor's remark. Unless noted, the call rests on the fitted dose curve; in most records, active means well fitted curve in the direction sought with a large enough effect; inconclusive means small, poorly fitted or top-dose-only effect, or another doubt; inactive means no such curve, though single readings can be large; an effect the other way counts as inactive or inconclusive. Potency means the concentration at half of the fitted maximal effect.

Every second line gives: 2A StopGo	Cruzain Triton	Cruzain noTriton	NS1 inh	LASV entry inh	MARV entry inh	RE007 growth inh	SARS PLpro yeast
- Cc1cc(C)c(S(=O)(=O)Nc2c(C)[nH]c(=O)[nH]c2=O)c(C)c1
→ ·	6.1%	7%	9%	-2%	-1%	4%	-7%
- Cc1nc2ccc(S(=O)(=O)NC(C(=O)N3CCC(C)CC3)C(C)C)cc2s1 (stereo unspecified)
→ -12%	2.5%	-6%	-9%	·	·	-6%	-6%
- O=C(c1ccccc1)C1CCN(C(=O)c2cccs2)CC1
→ 4%	·	·	-3%	13%	-19%[14.2 µM]	-11%	-1%
- O=C1ON(Cc2ccccc2)C(c2ccccc2)N1c1ccccc1 (stereo unspecified)
→ 9%	·	·	·	-1%[46.1 µM]	11%	9%	·
- COc1cccc(CNC(=O)C2CCN(S(=O)(=O)c3ccc4c(c3)CC(C)N4C(=O)C3CC3)CC2)c1 (stereo unspecified)
→ -14%	·	·	-6%	·	·	-4%	1%
- O=C(c1ccc(S(=O)(=O)Nc2ccccc2F)cc1)N1CCCCCC1
→ 3%	·	·	·	-2%[46.1 µM]	-24%	25%	-3%
- CCOC(=O)Cn1c(=O)oc2cc(S(=O)(=O)NCC3CCCO3)ccc21 (stereo unspecified)
→ 2%	1.5%	-4%	?	·	·	3%	4%
- N#Cc1ccc(CSc2nnc(-c3ccccc3)n2Cc2ccco2)cc1
→ -16%	-2.3%	1%	-16%	15%	?	3%	-1%
- O=C(COc1ccccc1)Nc1nnc(S(=O)(=O)N2CCCCC2)s1
→ -5%	·	·	-11%	19%[46.1 µM]	9%[46.1 µM]	-4%	-3%
- COc1ccc(C)cc1S(=O)(=O)Nc1ccc2c(c1)N(C(C)=O)CCC2
→ -9%	·	·	·	-2%	-13%	-7%	1%
- CCCCOC(=O)n1c(=O)oc2ccccc21
→ 17%	2.0%	4%	-11%	18%	32%	-3%	-5%
- COC(=O)c1sccc1S(=O)(=O)N1CCN(c2cccc(C)c2)C(C)C1 (stereo unspecified)
→ -23%	-7.3%	5%	·	?	·	·	·
- Cc1ccc2c(c1)nnn2C1CCN(S(=O)(=O)c2ccc3ccccc3c2)CC1
→ ?	-2.4%	12%	7%	?	2%	18%	13%
- CC1CCc2c(sc(NC(=O)c3ccc(Cn4cc([N+](=O)[O-])cn4)o3)c2C#N)C1 (stereo unspecified)
→ 20%	-11%	-17%	5%	0%	3%	5%	-15%
- CO/N=C/C(=N\Nc1ccccc1)C(=O)c1ccccc1
→ -4%	·	·	-4%	-23%	?	-8%	-4%
- CCOC(=O)Cc1csc(NC(=O)c2c(O)c3ccccc3n(CC(C)C)c2=O)n1
→ -11%	3.0%	19%	0%	?	17%	7%	-2%
- CCS(=O)(=O)N1CCN(CC(=O)NC2CCCCC2)CC1
→ -5%	·	·	2%	2%	5%[46.1 µM]	-12%	1%
- COc1ccc(NC(=O)CSc2nc3cc(OC)c(OC)cc3c3nc(-c4ccccc4)nn23)cc1Cl
→ -20%	0.2%	-3%	·	7%[46.1 µM]	-5%[46.1 µM]	·	·
- O=C(NCc1cccc(F)c1)c1ccc(NC(=O)c2nsc3ccccc23)cc1
→ 6%	-3.2%	-23%	·	20%[46.1 µM]	·	·	·
- C/C(=N\NC(=O)c1ccccc1N)c1ccc(NC(=O)Cc2ccccc2)cc1
→ 43%[activator]	·	·	-1%	8%	-17%	4%	13%
- Cc1ccc(-c2cc(C(=O)Nc3cccnc3)c3ccccc3n2)s1
→ -11%	·	·	0%	-18%	-28%	13%	-5%
- CCOc1ccccc1Nc1nc(N)nc(CSc2nccc(C)n2)n1
→ -22%	1.8%	-11%	-18%	-4%	-2%	-4%	4%
- Cc1ccc(S(=O)(=O)N2CCC[C@H]2C(=O)OCC(=O)c2ccc3c(c2)NC(=O)CO3)cc1
→ -24%	·	·	4%	·	·	3%	-1%
- COC(=O)c1scc(-c2ccc(C)cc2)c1S(=O)(=O)Nc1ccc(N(C)C)cc1
→ 28%	12%	?	·	13%[46.1 µM]	·	·	·
- c1ccc2c(c1)-c1cccc3cncc-2c13
→ -10%	·	·	·	26%	-7%	?	·
- C=CCn1c(SCC(=O)c2c(N)n(C3CC3)c(=O)[nH]c2=O)nnc1-c1ccccc1OC
→ -5%	·	·	·	1%	20%	-5%	3%
- COc1cc2c(cc1OC)[C@H](C)N(C(=S)Nc1ccc(F)cc1)CC2
→ -21%	·	·	-15%	-20%	24%[14.2 µM]	8%	0%
- Cc1ccc(C(=O)Nc2nc(C)c(C(=O)N(C)C)s2)o1
→ 28%	·	·	-14%	·	·	-8%	-9%
- C=CCNC(=O)c1onc(CSc2ccccc2C)c1C(=O)O
→ -14%	-0.7%	0%	18%	·	·	-8%	-2%
- CCCCNC(=S)NNC(=O)c1nn(C)c(C)c1Cl
→ 14%	-0.1%	3%	-3%	-2%	-3%	0%	15%

Other compounds follow:
Every second line gives: 2A StopGo	Cruzain Triton	Cruzain noTriton	NS1 inh	LASV entry inh	MARV entry inh	RE007 growth inh	SARS PLpro yeast
- O=S1(=O)C[C@@H]2N=C(N/N=C/c3ccccc3)S[C@@H]2C1
→ 1%	·	·	6%	9%	1%	17%	-3%
- COc1ccc(OCC(=O)OCc2cc(=O)n3nc(-c4cccs4)sc3n2)cc1
→ -3%	-6.6%	-20%	·	7%[46.1 µM]	·	·	·
- CC1CCCCN1C(=O)Nc1cccc(C(F)(F)F)c1 (stereo unspecified)
→ -2%	·	·	2%	-11%	2%[46.1 µM]	0%	3%
- Cc1ccc(N2C(=O)CN(Cc3cccs3)C2=S)cc1C
→ -10%	·	·	14%	-11%	-3%	13%	-7%
- O=C(O)c1ccc(N2C(=O)C3ON(c4ccccc4)C(c4ccccc4F)C3C2=O)cc1 (stereo unspecified)
→ -14%	-0.5%	?	-55%	4%	0%&8%	7%	-2%
- Cc1cccc(N2C(N)=NC(N)=NC23CCCCC3)c1
→ 2%	-0.2%	4%	-2%	14%	-1%	-24%	-1%
- CCCCC(CCC(=O)Nc1ccc(C(=O)OC)cc1)C(=O)O (stereo unspecified)
→ -19%	-3.2%	5%	7%	-8%	18%[46.1 µM]	28%	9%
- O=C(Cn1nnc(-c2ccncc2)n1)NCCc1ccccc1
→ ·	1.2%	-3%	1%	5%	-3%	-20%	2%
- S=c1[nH]nc(C2CCCCC2)n1/N=C/c1cccs1
→ -7%	-2.2%	-1%	0%	1%	-1%	-5%	24%
- COc1cccc(CCNC(=O)c2c(O)nc3c(C)cccn3c2=O)c1
→ 38%[activator]	-0.6%	12%	·	·	?	·	·
- CCCCn1c(O)c(/C=C/C=Nc2ccccc2)c(=O)[nH]c1=O
→ -9%	-9.8%	?	2%	8%	23%	0%	24%
- Cc1nn(-c2ccccc2)c(OC(=O)c2ccccc2F)c1S(=O)(=O)c1ccccc1
→ 6%	-1.1%	5%	·	-11%[46.1 µM]	2%[46.1 µM]	·	·
- CCN(CC)CC(=O)NN(Cc1ccccc1)c1ccccc1
→ -3%	·	·	-4%	-5%	0%	6%	0%
- Cc1ccc(NC(=O)CSCC(=O)NC2CCCCC2)cc1
→ 5%	-1.6%	15%	11%	-7%	-5%	12%	2%
- Cc1ccc(OCC(=O)NCCN2CCN(C(=O)COc3ccc(C)cc3)CC2)cc1
→ -23%	2.8%	22%	-20%	-1%	13%&13%	-16%	1%
- O=C(O)Cn1cnc2ccccc2c1=O
→ ·	6.2%	-5%	-6%	14%	1%	6%	-4%
- Cc1cc(SCc2ccccc2Cl)nc(=O)[nH]1
→ 10%	·	·	14%	·	·	32%	-4%
- CCn1nc(C)c(NC(=O)/C=C/c2ccc(OC)c(COc3ccc(Cl)cc3Br)c2)c1C
→ 0%	-2.2%	3%	-1%	?	?	15%	15%
- Cc1ccc(Cl)cc1NC(=O)C(=O)NCCc1sc(-c2ccc(F)cc2)nc1C
→ -19%	-1.9%	-1%	·	15%[46.1 µM]	·	·	·
- O=C(Nc1nccs1)C1CCCN1S(=O)(=O)c1cccc2cccnc12 (stereo unspecified)
→ -5%	1.7%	-3%	3%	·	·	9%	?
- Cc1ccc(-c2n[nH]c3c2C(c2cccc(O)c2)N(c2ccc(C(=O)O)cc2)C3=O)cc1 (stereo unspecified)
→ 14%&0%	-9.9%	-6%	?	23%[46.1 µM]	26%&26%[46.1 µM]	-1%	2%
- COc1ccc(OCc2cc(C(=O)N3CCN(CC(=O)N(C)C)CC3)no2)c(Cl)c1
→ 12%	·	·	-6%	·	·	7%	1%
- COc1ccc(Cc2nc3ccc(C(=O)N(C)CCCN4CCOCC4)cc3o2)cc1
→ -12%	·	·	15%	·	·	7%	21%
- O=C(c1ccc2c(c1)CCN2S(=O)(=O)c1ccc(Cl)cc1)N1CCN(c2ccc(F)cc2)CC1
→ -27%	0.3%	?	·	-11%[46.1 µM]	-2%[46.1 µM]	·	·
- COc1ccc2[nH]c(C)c(CCN(Cc3cccs3)C(=S)Nc3ccc(F)cc3)c2c1
→ -12%	-6.5%	?	?	·	·	-7%	-10%
- c1ccc(Oc2nc(Oc3ccccc3)nc(N3CCOCC3)n2)cc1
→ ?	-0.8%	6%	-13%	-23%	?	6%	-16%
- O=C(NCCN1CCN(c2ccccc2)CC1)c1ccccc1F
→ -3%	·	·	-1%	-10%[46.1 µM]	2%[46.1 µM]	-2%	3%
- CC(C)CC(=O)NC1(C(F)(F)F)C(=O)N(CC(C)C)C2=C1C(=O)CC(C)(C)C2 (stereo unspecified)
→ -24%	-1.6%	12%	-3%	-15%	0%	-2%	-6%
- Cc1ccc2c(c1)nnn2C1CCN(CC(=O)c2ccc(Cl)cc2)CC1
→ 20%	2.2%	-23%	-17%	6%	3%[46.1 µM]	?	-2%
- CC(=O)Nc1ccc(NC(=O)C2C3C=CC(C3)C2C(=O)O)cc1 (stereo unspecified)
→ -7%	·	·	4%	18%	4%	3%	2%

Compounds were not picked by outcome; 4.7% or so of the library scored in one or more.
